High-throughput results as filed in PubChem BioAssay.
T cruzi inh = blocks replication of Trypanosoma cruzi; T. cruzi beta-gal in NIH3T3, luminescence, 90 h; inhibition, % (no concentration beside the values); 1.4% of 300,000 active; AID 1885;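 active = mean inhibition across valid replicates above about 55%, limit read from the data; inconclusive = mean below that limit but half or more replicates reach it; inactive = mean below it, under half of replicates reach it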;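 note: signal also drops with host cell toxicity which is not excluded here; 0% = plate median of DMSO wells and 100% = zero luminescence signal; higher percent means less beta-gal luminescence so fewer parasites; stock transfer was 50 nL into about 50 µL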
Calb FLC = C. albicans growth modulation with fluconazole; C. albicans CaCi-2 (fluconazole-resistant clinical isolate) + fluconazole, Alamar Blue growth, 48 h; growth inhibition, % (test concentration not listed); 0.57% of 300,000 active; AID 1979;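 active = most replicates above 75%; inconclusive = exactly half above 75%; inactive = most below 75%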;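 note: all wells also contain fluconazole at 8 µg/ml as a sub-toxic cotreatment; 0% = median of DMSO wells and 100% = median of geldanamycin control wells; wells of about 8 µL received 7.5 nL stock; the first replicate is given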
rRNA inh HTS = inhibitors of bacterial rRNA selective over humanized ribosomes; E. coli WT GFP vs humanized-ribosome RFP mutants, fluorescence, 24 h; stronger effect = lower value; DMSO median 0, no signal -100; GFP signal change (wild-type ribosome), % (concentration not given with the values); 1.6% of 350,000 active;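 active = significant combined selectivity score with lowered wild-type GFP, culture density cut under 30%, mutant RFP and density less affected; inactive = any of these conditions unmet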; note: one replicate is shown; some compounds called inactive have numbers as strong as hits
LANA-H2B inh = blocks KSHV LANA binding to histone H2A/H2B; cell-free LANA-H2A/H2B peptide, fluorescence polarization; AID 2629; inhibition, % (concentration not given with the values); 0.6% of 320,000 active; Q9QR71; in the data active = inhibition mostly above about 10%, no sharp cut-off; inactive = mostly below about 6.7%;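 note: stock transfer was 7.5 nL into about 10 µL; 0% = median of vehicle wells and 100% = median of positive control wells; one replicate is shown; the record names a cut of 25% in any replicate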
Bfl-1 A1 inh = inhibitors of the anti-apoptotic protein A1, read as caspase activation; MEF A1-2A-BIM cells, Caspase-Glo 3/7 luminescence, 3 h; percent of clofoctol response, vehicle zero; caspase activation, % (concentration not given with the values); 0.066% of 330,000 active;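 active = over half of replicate activation scores above 10%, or exactly half above 10 with the replicate mean above 10; inconclusive = replicate mean below 10 yet half the replicates above 10; inactive = over half of replicates below 10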;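 note: wells of about 30 µL received 50 nL stock; many hits fall short of the cut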
ALR inh = inhibitors of human sulfhydryl oxidase ALR | P55789 | purified ALR, DTT oxidation, H2O2 HRP-luminol luminescence | inhibition, % (concentration not given with the values) | 3.8% of 290,000 active | AID 485317;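 active = mean and each replicate at 75% or more; inconclusive = only one of the two met; inactive = neither met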;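 note: stock transfer was 7.5 nL into about 7.5 µL; 0% = neutral wells and 100% = wells with inactivated enzyme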
Target sequence (P55789 whole entry, looked up): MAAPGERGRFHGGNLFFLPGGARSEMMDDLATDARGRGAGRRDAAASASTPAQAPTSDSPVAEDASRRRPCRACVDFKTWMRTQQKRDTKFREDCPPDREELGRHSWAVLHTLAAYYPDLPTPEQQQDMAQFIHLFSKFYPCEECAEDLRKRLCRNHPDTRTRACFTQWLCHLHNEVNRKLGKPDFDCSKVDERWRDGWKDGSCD
Beta2AR agonist = activates human beta-2 adrenergic receptor causing internalization. P07550. Am2.2-beta2AR cells, FAP receptor internalization, flow cytometry; reference of the scale not given here. response, % (no concentration beside the values). 0.43% of 340,000 active. AID 504454;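 active = response above a set limit, near 3 SD of response in nonfluorescent compounds, cut at about 42% in these data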;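 note: stock transfer was 100 nL into about 11 µL; a reference agonist was the positive control; negative values mostly stem from fluorescent compounds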
Target sequence (P07550 whole entry, looked up): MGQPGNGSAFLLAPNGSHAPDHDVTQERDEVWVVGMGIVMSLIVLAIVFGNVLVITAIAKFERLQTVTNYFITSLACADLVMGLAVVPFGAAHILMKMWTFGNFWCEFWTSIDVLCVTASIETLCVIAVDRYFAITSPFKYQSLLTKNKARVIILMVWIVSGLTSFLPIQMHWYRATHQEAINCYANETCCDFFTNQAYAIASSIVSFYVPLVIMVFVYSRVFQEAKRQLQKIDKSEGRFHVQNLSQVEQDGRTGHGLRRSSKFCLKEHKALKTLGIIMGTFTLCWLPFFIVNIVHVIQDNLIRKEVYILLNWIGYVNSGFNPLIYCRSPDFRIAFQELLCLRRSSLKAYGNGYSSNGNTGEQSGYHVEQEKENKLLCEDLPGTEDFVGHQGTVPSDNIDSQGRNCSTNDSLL
Beta cell apopt = beta cell apoptosis inhibition; protection from apoptosis, % (no concentration beside the values); AID 435005; INS-1E cytokine-induced death, ATP luminescence, 48 h; percent of positive-control rescue, neutral wells zero; 0.8% of 300,000 active;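 active = all replicates at 75% or more, or half of them and the mean; inconclusive = half reach 75% but not the mean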;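 note: 0% = cytokine-treated negative control wells and 100% = positive control rescue; higher means more ATP so stronger rescue from cytokine killing; wells of about 40 µL received 100 nL stock; the first replicate is given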
rRNA inh HTS OD600 = second read-out of rRNA inh HTS, no call of its own (marks repeat the call); OD600 change, %; measured here: OD600 growth;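 optical density of the mix in the first replicate; 0 = DMSO median and -100 = no signal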
rRNA inh HTS RFP = recorded beside rRNA inh HTS, whose call it bears; RFP signal change, %; measured here: RFP humanized mutant strains;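 first replicate; 0 = DMSO median and -100 = no signal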
Active calls of the source: *; ? = inconclusive; nt = no result given; & = joins results of further samples. Only part of the results is shown; count on the stated rates, not on these rows.

SMILES	T cruzi inh	Calb FLC	rRNA inh HTS	rRNA inh HTS OD600	rRNA inh HTS RFP	LANA-H2B inh	Bfl-1 A1 inh	ALR inh	Beta2AR agonist	Beta cell apopt
O=C(c1ccc(CS(=O)c2ccccc2Cl)o1)N1CCOCC1 (stereo not drawn)	2	-6	-1	7	-3.4	-1.7	0.1	6	-3	-5
CC(C)[C@H](NC(=O)c1ccco1)C(=O)N(C)Cc1ccc(C(F)(F)F)cc1	10	-12	-4	-10	0.5	-5.0	-0.3	3	-3	-4
Cc1cccc2cc(C#N)c(N3CCN(C)CC3)nc12	27	-13	nt	nt	nt	-2.4	-0.5	-15	-2	3
CCN1CCN(CCCNC(=O)C2c3ccccc3C(=O)N(c3ccc(OC)cc3)C2c2ccc(OC)cc2)CC1 (stereo not drawn)	-10	-1	12	6	3.1	-0.5	0.7	1	0	-5
Cn1c(SCC(=O)NC2CC2)nnc1C(F)(F)F	-21	-12	nt	nt	nt	5.0	0.6	0	-1	-1
N#Cc1cc[n+](CC(=O)c2ccc(NC(=O)c3ccccc3)cc2)cc1	-6	-3	3	10	-4.7	-0.8	-3.4	-7	16	0
CCNc1ccc(C(=O)OCC(=O)NCc2ccc(C)cc2)cc1[N+](=O)[O-]	-2	1	nt	nt	nt	-1.0	0.8	nt	-3	-8
Nc1c(N(Cc2ccccc2)C(=O)COc2cccc(Cl)c2)c(=O)[nH]c(=O)n1Cc1ccccc1	6	0	2	2	3.2	3.3	0.2	-1	2	11
COc1ccc(C23CC4CC(CC(C(=O)O)(C4)C2)C3)c(F)c1	-16	15	-8	-13	-2.8	1.1	0.7	-7	7	3
N#Cc1cccc(C#N)c1Oc1ccc(N)cc1	8	-8	1	5	-3.6	-1.4	-0.4	38	3	0
Cc1nc2sccn2c1-c1nc(-c2cc3ccccc3o2)cs1	17	17	nt	nt	nt	0.5	0.9	-3	0	-1
O=C(Nc1ccccc1F)C1(c2ccccc2)CC1(Cl)Cl (stereo not drawn)	12	-3	nt	nt	nt	-3.5	-0.1	2	-8	-8
Fc1ccc(/C=C2\CCCC3=C2Nc2ncnn2C3c2ccc(F)cc2)cc1 (stereo not drawn)	23	-6	nt	nt	nt	-2.3	2.1	nt	19	3
COc1ccc(C(=O)C2CCCN(S(=O)(=O)c3cccc(C)c3)C2)c(C)c1 (stereo not drawn)	12	17	-17	-20	-3.5	4.5	-0.4	-3	7	-8
CC(=O)c1c(C)[nH]c(C2=NNC(=NC(C)(C)C)SC2)c1C	25	?	1	5	1.5	-1.6	-0.5	-50	6	-7
Cc1ccc(NC(=O)COC(=O)C2CCN(c3ccc(C(F)(F)F)cn3)CC2)cc1	nt	nt	-15	-56	16	-1.7	0.1	-7	1	-2
COc1cc(C(=O)NC(=S)N(CCc2ccccc2)CCc2ccccc2)cc(OC)c1OC	51	93*	nt	nt	nt	3.8	-0.3	-3	13	nt
CN1N=C2c3ccccc3CCC2C1c1ccc(C(F)(F)F)cc1 (stereo not drawn)	-20	-1	nt	nt	nt	-1.5	0.6	-19	nt	-11
CCCCC(=O)Nc1c2c(nn1-c1ccc([N+](=O)[O-])cc1)CS(=O)(=O)C2	-4	-2	4	12	0.2	0.6	-0.3	2	4	-5
O=C(NNC(=O)c1ccc(F)cc1F)c1ccc(-n2cnnn2)cc1	2	-7	6	3	-0.5	1.0	0.7	-4	3	-2
CCN1CCCC1CNCc1ccccc1OCc1ccc(F)cc1 (stereo not drawn)	-5	-12	6	-5	-0.3	6.9	0.6	-3	-3	-1
Cc1occc1C(=O)N/N=C/C(Br)=C/c1ccccc1	-16	1	-33	-50	-3.4	-2.3	0.2	42	2	11
Cc1cccc(NC(=O)CSc2nnc(Cc3ccccc3)o2)c1	11	36	-17	-15	-1.1	-1.0	0.5	2	1	nt
CCN(CC)C1CCCCC1NS(=O)(=O)c1ccc(Cl)cc1 (stereo not drawn)	-2	-4	9	17	-1.1	-3.0	-0.2	-11	0	1
O=C(c1ccco1)N1CCN(c2nc3ccccc3c(=O)n2-c2ccccc2)CC1	3	16	nt	nt	nt	-6.9	1.7	nt	-17	9
O=C(OCCN1C(=O)c2ccccc2C1=O)c1ccc(S(=O)(=O)N2CCCCCC2)cc1	-6	-5	nt	nt	nt	-1.8	-0.3	nt	-3	-5
CCOc1cc(C=O)c(Br)cc1OC1CCCC1	-9	-9	nt	nt	nt	0.7	-0.9	-1	44*	-7
Cc1cccnc1NC(=O)C1COc2ccccc2O1 (stereo not drawn)	-2	0	8	6	-1.1	-4.7	-0.3	-14	0	-6
Cc1cccc(Cn2c(SCC(=O)Nc3ccccc3)nc3c2c(=O)[nH]c(=O)n3C)c1	4	-2	2	2	1.9	0.8	0.4	21	-5	2
CCOC(=O)C1C(C)=C(Nc2ccc(OC)cc2)C(=O)N1c1ccc(OC)cc1 (stereo not drawn)	-7	2	nt	nt	nt	-3.4	1.2	-1	-1	3
CC(O)c1nc2ccccc2n1CC(=O)Nc1ccc(F)cc1Cl (stereo not drawn)	-1	15	17	18	-1.2	-7.1	0.1	-4	3	0
C/C(CC(=O)Nc1ccc2c(c1)OCCO2)=N\NC(=O)c1ccccc1Cl	1	1	9	3	0.9	0.8	0.4	nt	-1	-3
COc1cc(C(=O)NNC(=O)C2CCCC2)cc(OC)c1OC	-6	-5	-1	9	-1.5	2.9	-0.9	-2	11	5
CCOc1ccc(-c2[nH]ncc2Oc2ccccc2OC)c(O)c1	-1	2	nt	nt	nt	-0.9	?	4	3	-9
O=C(NC1CCN(Cc2ccccc2)CC1)c1cccc(S(=O)(=O)Nc2cc(C(F)(F)F)ccc2Cl)c1	20	-12	nt	nt	nt	4.5	-0.8	-9	1	5
Cn1c(=O)c2c(nc(SCC(=O)NC3CCCC3)n2C)n(C)c1=O	-17	4	-1	3	0.6	2.9	-0.2	2	0	1
COc1ccc([C@H]2CC(=O)C=C(c3cccc4c3sc3ccccc34)C2)cc1OC	nt	nt	8	16	6.0	-6.1	-0.2	0	-1	2
Cc1cccc(C2c3[nH]c4ccccc4c3CCN2C(=O)c2cc(CC(C)C)[nH]c(=O)n2)n1 (stereo not drawn)	8	4	-24	-23	22	-0.5	-0.4	-17	5	-1
COCCNC(=O)C1(C)C=CC2(CCCCC2)N1C(=O)c1ccccc1 (stereo not drawn)	-26	2	14	4	1.7	-2.1	2.0	-4	-7	-3
Cc1cc(OCC(=O)C(C)(C)C)c2c(C)c(C)c(=O)oc2c1	39	2	nt	nt	nt	-3.7	0.3	0	-3	-4
O=C(O)CC(NNC(=O)c1ccccc1)C(=O)Nc1ccc([N+](=O)[O-])cc1 (stereo not drawn)	-16	-1	7	8	1.9	0.9	-0.5	-6	-1	2
CCCCN1CC(=O)N2[C@H]3c4ccccc4OC[C@@H]3[C@H](C(=O)OCC)[C@]2(C)C1=O	nt	nt	4	1	-1.9	0.0	1.3	-2	1	-5
Cc1cccc(-n2c(-c3csc(C)c3)n[nH]c2=S)c1	-12	12	-14	-18	-1.4	5.8	1.1	55	1	2
CCC(C)(C)NC(=O)/C=C/c1cccs1	4	11	4	7	-8.1	-0.4	-0.2	0	-42	-3
CC(=O)C1=NOC2C(=O)N(c3ccc(Cl)cc3)C(=O)C12 (stereo not drawn)	-12	-7	4	12	0.5	-1.2	0.7	3	1	4
CNS(=O)(=O)c1cnccc1N1CCN(c2cccc(Cl)c2)CC1	15	-1	nt	nt	nt	1.9	-0.4	18	-4	-11
CCCc1cc(=O)[nH]c(SCC(=O)N2c3ccccc3CC2C)n1 (stereo not drawn)	nt	nt	-5	-8	-0.7	-0.6	-0.1	2	5	-4
O=c1oc2ccccc2cc1-c1nc2c(s1)CCCC2	-1	-14	10	8	-2.4	1.2	-6.3	4	-18	16
O=C(CN1C(=O)NC2(CCCC2)C1=O)Nc1ccc(F)c([N+](=O)[O-])c1	-12	-16	-7	-6	-2.5	-1.0	0.3	-10	-1	-7
CC1CCc2cccc3c2N1c1cc(C#N)c(C#N)cc1O3 (stereo not drawn)	8	37	15	11	0.9	12	0.7	nt	-23	2

(cont.)
SMILES	T cruzi inh	Calb FLC	rRNA inh HTS	rRNA inh HTS OD600	rRNA inh HTS RFP	LANA-H2B inh	Bfl-1 A1 inh	ALR inh	Beta2AR agonist	Beta cell apopt
Cc1nnsc1Sc1ccccc1	8	13	12	-2	5.1	5.1	0.0	0	-10	-7
COc1ccc(-c2cc(C(=O)N3CCCCCC3)no2)cc1OC	-4	6	-9	-8	-1.4	-1.5	0.4	-6	5	-3
CCn1ncc(Br)c1C(=O)Nc1ccc(-c2ccno2)cc1	-2	13	-7	-11	-2.4	nt	nt	0	-2	nt
COc1cc(C(=O)NCC(c2ccc(F)cc2)N2CCOCC2)ccc1OCc1ccccc1Cl (stereo not drawn)	21	3	-4	-24	13	-5.3	-0.5	5	3	40
COc1ccc(OC)c(CCNC(=O)c2nn(C)c3c2CS(=O)(=O)c2ccccc2-3)c1	-7	-1	-8	-11	-0.4	7.0	1.7	-11	14	-2
CCOc1ccc(C(=O)NCC(=O)OCC(=O)c2ccc3c(c2)-c2ccccc2C3)cc1	-14	9	3	7	6.4	-2.8	1.0	nt	12	-24
Cc1noc(C)c1NC(=O)N(C)C[C@H]1Oc2c(NC(=O)C3CC3)cccc2C(=O)N([C@H](C)CO)C[C@@H]1C	nt	nt	1&-3	-6&-1	-0.5&-0.7	-1.7	2.1	-8	-1	0
Cc1[nH]c2ccc(S(N)(=O)=O)cc2c1C	-3	23	nt	nt	nt	-5.3	-0.2	nt	2	nt
Cc1c(C(=O)N2CCN(Cc3ccc4c(c3)OCO4)CC2)cccc1[N+](=O)[O-]	-4	-32	nt	nt	nt	-11	0.1	-6	0	-4
Cc1ccc(O)c(NC(=O)CCC2CCCCC2)c1	-11	-9	nt	nt	nt	1.1	-5.6	-4	-12	-11
O=C(O)CSc1cn(Cc2ccccc2)c2ccccc12	-11	-6	-8	-3	-1.8	1.5	0.9	44	2	-3
O=c1c(C(c2ccc(O)cc2)c2c(O)nc3n(c2=O)CCCS3)c(O)nc2n1CCCS2	-6	-3	nt	nt	nt	4.0	-0.1	33	2	-9
O=C(Nc1cccc(O)c1)C(Cc1ccccc1)N1C(=O)c2cccc3cccc(c23)C1=O (stereo not drawn)	9	-4	14	14	5.4	2.7	-0.3	4	14	0
COC(=O)c1sccc1NC(=O)COc1ccc(Cl)cc1Cl	21	-4	nt	nt	nt	5.4	-3.5	-29	1	0
COCC(=O)N1CCC(Oc2ccc(C(=O)N3CCCCCC3)cc2)CC1	-2	-1	8	10	-0.4	1.3	1.1	1	-7	-3
N#Cc1cc2c(nc1SCC(=O)NCc1ccc3c(c1)OCO3)CCCCC2	36	-16	nt	nt	nt	-1.3	-2.8	0	-4	-12
